# CtBP-E1A inh – qHTS Assay for Inhibitors of the CtBP/E1A Interaction. AID 651724, 2012. AlphaScreen GST-E1A/His-CtBP binding, 1536-well; stronger effect = lower value; control for the full effect not named in the record. actives 0.49% (n = 340,000). activity change, % (test concentration not listed); in the data active means activity change below about -65%; inconclusive means about -30% to -65%; inactive means above about -30%; further: on the % scale 0 is the no-effect control and ±100 the full control effect; compound concentration not given in the record
#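 Homogeneous bead-based format: GST-tagged E1A captured on glutathione donor beads, His-tagged CtBP on nickel acceptor beads; compounds precede bead addition by 2 h at 37 °C.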
# D2 agonist – Beta-Arrestin HTS for Positive Allosteric Modulators of the Human D2 Dopamine Receptor: Agonists; actives 0.084% (n = 360,000); DiscoveRx PathHunter D2 beta-arrestin, luminescence, 90 min; 100% = 57 uM dopamine signal; D(2) dopamine receptor (Homo sapiens), P14416; activation, % (concentration not given with the values); AID 624465, 2012; in the data active = activation above about 40%; inconclusive = about 15% to 40%; inactive = below about 15%; further: compound concentration not given in the record; the text of the record calls up to 30% inactive
#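 DiscoveRx PathHunter D2 beta-arrestin cells (2,100/well) attached overnight, then compound-stimulated 90 min at 37 C in HBSS/10 mM HEPES/0.1% Tween-20 buffer; beta-galactosidase complementation read by luminescence after 1 h at ambient temperature. Dopamine 57 uM final (EC100) as control.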
# TRPV1 PAM – HTS Assay for Compounds that Act as Potentiators of the Vanilloid Receptor 1. potentiation, % at 8.33 µM. Transient receptor potential cation channel subfamily V member 1 (Homo sapiens), Q8NER1. actives 0.02% (n = 320,000). TRPV1-expressing cells, Fluo-8 calcium influx, capsaicin EC20 potentiation; host cell line not named in the record; control for the full effect not named in the record. AID 540277, 2011; active means potentiation above 80%; inconclusive means 30% to 80%; inactive means below 30%; further: 0% is about no effect
# Target sequence (Q8NER1 whole entry, looked up): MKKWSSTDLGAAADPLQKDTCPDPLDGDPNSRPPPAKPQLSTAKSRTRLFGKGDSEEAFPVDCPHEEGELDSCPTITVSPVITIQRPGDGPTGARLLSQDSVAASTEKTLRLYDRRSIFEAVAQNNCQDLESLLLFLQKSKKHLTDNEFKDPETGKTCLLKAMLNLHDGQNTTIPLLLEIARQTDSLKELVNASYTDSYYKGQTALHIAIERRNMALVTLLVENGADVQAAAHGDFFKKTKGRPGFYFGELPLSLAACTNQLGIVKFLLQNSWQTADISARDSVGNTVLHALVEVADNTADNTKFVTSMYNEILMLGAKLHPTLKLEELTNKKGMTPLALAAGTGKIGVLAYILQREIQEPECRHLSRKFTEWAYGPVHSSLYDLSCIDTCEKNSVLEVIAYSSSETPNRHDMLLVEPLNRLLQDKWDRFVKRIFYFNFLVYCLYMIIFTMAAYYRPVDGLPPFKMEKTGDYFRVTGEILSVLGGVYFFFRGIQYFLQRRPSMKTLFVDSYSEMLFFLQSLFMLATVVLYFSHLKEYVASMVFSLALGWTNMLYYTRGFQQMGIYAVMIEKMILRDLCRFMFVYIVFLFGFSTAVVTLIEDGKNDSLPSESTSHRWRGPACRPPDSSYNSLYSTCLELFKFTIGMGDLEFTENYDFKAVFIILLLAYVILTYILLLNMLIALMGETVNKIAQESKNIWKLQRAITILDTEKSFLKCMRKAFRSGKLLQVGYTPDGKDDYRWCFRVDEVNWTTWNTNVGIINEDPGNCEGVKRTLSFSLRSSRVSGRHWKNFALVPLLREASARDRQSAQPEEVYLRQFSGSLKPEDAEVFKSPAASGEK
#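 Cells expressing TRPV1 were dye-loaded with Fluo-8 and read kinetically: 10 s baseline, 3 min after compound (agonist portion), then 2 min after EC20 capsaicin (allosteric enhancer portion). Calcium-bound dye fluorescence at 480/520 nm.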
# D2 PAM – Beta-Arrestin HTS for Positive Allosteric Modulators of the Human D2 Dopamine Receptor: Potentiators. DiscoveRx D2 beta-arrestin cells, luminescence, 90 min; 100% = 57 uM dopamine signal. potentiation, % (concentration not given with the values). actives 0.23% (n = 360,000). D(2) dopamine receptor (Homo sapiens), P14416; active = potentiation of 50% or more; inconclusive = 30% to 50%; inactive = 30% or less;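 further: compound concentration not given in the record; tested on top of an EC20 dose of dopamine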
#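 PathHunter beta-arrestin assay in DiscoveRx D2 cells. Compounds were added with an EC20 of dopamine (50 nM final) for 90 min at 37 deg C. Luminescence was read 1 h after detection reagent, with 57 uM dopamine as the EC100 control.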
# Sfp PPTase inh – qHTS Assay for Inhibitors of Bacillus subtilis Sfp phosphopantetheinyl transferase (PPTase) | 4'-phosphopantetheinyl transferase ffp (Bacillus subtilis), Q9F4F7 | AID 1490, 2009 | Potency, µM, inactives show max response, negative = inhibition, actives largely listed as inhibitors | Biochemical Sfp PPTase activity, qHTS | actives 3.5% (n = 310,000); active means well fitted inhibition curve with a large enough effect; inconclusive means small, poorly fitted or top-dose-only effect, or another doubt; inactive means no such curve, though single readings can be large or run the other way;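 further: the enzyme is Sfp with the accession as filed and its product quenches rhodamine fluorescence; potency means the concentration at half of the fitted maximal effect; 0% = enzyme reaction without inhibitor and -100% = no enzyme wells; top concentration of the series not given in the record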
#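 Step 1, compound plus 15 nM Sfp-PPTase, 15 min, room temperature. Step 2, add rhodamine-CoA (5 uM) and BHQ-2-YbbR (12.5 uM). Step 3, read 525/598 nm fluorescence at 0 and 30 min.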
# PINK1 modulator – A Quantitative High throughput Screen to Identify Chemical Modulators of PINK1 Expression; PINK1 immunofluorescence, high-content cytometry, 24 h; Potency, µM (doses to about 76.6 µM), inactives show at the highest dose activation (PINK1 increase), usual class: activators; actives 0.2% (n = 410,000); AID 624263, 2012; active = well fitted activation curve with a large enough effect; inconclusive = small, poorly fitted or top-dose-only effect; inactive = flat fitted curve, though single readings scatter; cell line not stated here;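 further: potency means the concentration at half of the fitted maximal effect; % of control where 0% means no effect; nearly all actives have a fitted effect of over 65% in size; a mitochondrial uncoupler was the plate control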
#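 Readout is PINK1 immunofluorescence, quantified alongside mitochondrial, cell and nuclear markers by laser-scanning microplate cytometry. Cells from a stable line were exposed to compound titrations (5 concentrations) for 24 hours, with CCCP controls.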
# Six1-Eya2 inh – qHTS Assay for Inhibitors of the Six1/Eya2 Interaction; AID 651725, 2012; AlphaScreen GST-Six1/His-Eya2 binding, biochemical; stronger effect = lower value; control for the full effect not named in the record; activity change, % (concentration not given with the values); actives 0.56% (n = 360,000); in the data active = activity change below about -65%; inconclusive = about -30% to -65%; inactive = above about -30%; further: on the % scale 0 is the no-effect control and ±100 the full control effect
#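 AlphaScreen luminescence read after one hour at 37 °C in darkness. Pin-transferred compounds met GST-Six1 and His-Eya2 protein (5X stock 250 nM/500 nM) plus glutathione donor and Ni-chelate acceptor beads (5X, 50 ug/mL).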
# * marks the source's active call; other numbers are inactive results; ? = inconclusive; nt = not tested or not shown; & = joins results of further samples; [ ] = another dose, or the depositor's remark.
# Start of the listing, in advance:
compound,D2 PAM,D2 agonist,TRPV1 PAM,PINK1 modulator,Sfp PPTase inh,Six1-Eya2 inh,CtBP-E1A inh
CCCCCn1c(N)c(-c2nc3ccccc3o2)c2c([N+](=O)[O-])nn(C)c(=O)c21,2.1,0.4,11.7,1.2%,3.3%,0.0,1.6
COc1ccc(-c2nc3c(c(=O)[nH]c(=O)n3Cc3ccccc3)n2C)cc1,-12.7,-0.8,3.8,1.3%,-5.6%,5.7,2.5
CC1C/C(=N\NC(=S)NC(C)C)CC(C)(C)C1 (stereo not drawn),-23.2,-6.3,-11.9,-1.1%,18.3%,-1.9,-2.3
FC(F)(F)c1ccccc1-n1ccnc1,-7.6,-0.5,5.3,1.4%,21.3%&-1.6%&-7.5%&-0.3%,-1.2,2.5
COc1ccc(S(=O)(=O)N(C)CC(=O)NC2CC2)cc1,7.0,-2.7,5.7,-2.0%[38.3 µM],18.8%,5.6,15.2

# This part in full (from the top)
compound,D2 PAM,D2 agonist,TRPV1 PAM,PINK1 modulator,Sfp PPTase inh,Six1-Eya2 inh,CtBP-E1A inh
CCCCCn1c(N)c(-c2nc3ccccc3o2)c2c([N+](=O)[O-])nn(C)c(=O)c21,2.1,0.4,11.7,1.2%,3.3%,0.0,1.6
COc1ccc(-c2nc3c(c(=O)[nH]c(=O)n3Cc3ccccc3)n2C)cc1,-12.7,-0.8,3.8,1.3%,-5.6%,5.7,2.5
CC1C/C(=N\NC(=S)NC(C)C)CC(C)(C)C1 (stereo not drawn),-23.2,-6.3,-11.9,-1.1%,18.3%,-1.9,-2.3
FC(F)(F)c1ccccc1-n1ccnc1,-7.6,-0.5,5.3,1.4%,21.3%&-1.6%&-7.5%&-0.3%,-1.2,2.5
COc1ccc(S(=O)(=O)N(C)CC(=O)NC2CC2)cc1,7.0,-2.7,5.7,-2.0%[38.3 µM],18.8%,5.6,15.2
O=C(Nc1ccc(-c2csc(Nc3ccc(Cl)cc3)n2)cc1)c1cccc(C(F)(F)F)c1,-4.9,-0.1,-16.9,9.7%,16.4%,-12.7,-9.2
COc1cc(C(=S)N2CCOCC2)cc(OC)c1OC(=O)c1cccc(C)c1,-3.1,7.7,7.0,0.9%,3.6%,-8.5,nt
NC(=O)c1oc2ccc(Cl)cc2c1NC(=O)CN1CCOCC1,-4.5,-2.2,-2.9,-0.1%,3.8%,-16.1,-4.8
O=C(CSc1ncccn1)NCc1ccc(Cl)cc1,-2.2,-3.0,-0.2,0.4%,15.1%,7.3,17.7
COC(=O)N/N=C\c1c(C)nn(-c2ccccc2)c1Cl,-3.6,-6.1,-6.7,2.6%,20.0%,1.8,1.5
COC(=O)c1cc2occc2n1Cc1ccc(Cl)cc1,-9.4,-0.9,3.5,-5.8%[38.3 µM],-16.2%,-0.9,-1.7
Cc1ccsc1/C=N/n1c(=S)[nH]nc(C)c1=O,-2.7,-2.0,-1.2,2.5%,-0.6%,-24.1,11.4
CCOC(=O)c1ccc(NS(=O)(=O)c2c(N)n(C)c(=O)n(C)c2=O)cc1,0.9,-1.4,nt,2.2%,nt,0.0,0.0
O=C(C1CCN(S(=O)(=O)c2cccc([N+](=O)[O-])c2)CC1)N1CCOCC1,3.8,-3.5,7.9,-0.6%,8.5%,4.0,5.0
C1CCCCCC(=NNc2nn[nH]n2)CCCCC1,-6.8,3.8,-9.0,4.4%,39.8µM*,-0.8,-4.5

# Some of the entries so far, with values under each structure:
# Below each compound – D2 PAM, D2 agonist, TRPV1 PAM, PINK1 modulator, Sfp PPTase inh, Six1-Eya2 inh, CtBP-E1A inh
O=C(C1CCN(S(=O)(=O)c2cccc([N+](=O)[O-])c2)CC1)N1CCOCC1
 : 3.8, -3.5, 7.9, -0.6%, 8.5%, 4.0, 5.0
C1CCCCCC(=NNc2nn[nH]n2)CCCCC1
 : -6.8, 3.8, -9.0, 4.4%, 39.8µM*, -0.8, -4.5

# Going on with the list.
compound,D2 PAM,D2 agonist,TRPV1 PAM,PINK1 modulator,Sfp PPTase inh,Six1-Eya2 inh,CtBP-E1A inh
CCn1c(C)c(C)c2cc(C(=O)N3CCN(c4ccccc4)CC3)ccc21,-22.9,-3.2,-16.7,19.5%&-0.9%,-15.2%,?,?
O=C(NCC(c1cccs1)N1CCc2ccccc21)c1ccccc1 (stereo not drawn),-4.9,-1.3,-5.0,-1.0%,nt,?,-16.7
CC(C(=O)N1CCN(Cc2ccccc2)CC1)c1ccc([N+](=O)[O-])cc1 (stereo not drawn),-10.6,-2.5,-17.6,0.9%,?,11.3,-6.9
O=C1CC(c2ccc(F)cc2)Cc2nc(N3CCN(c4ccccc4)CC3)ncc21 (stereo not drawn),3.5,-0.4,16.1,12.1%,-11.5%,4.0,0.6
Cc1nc(C)n(C)c(=O)c1-c1ccccc1,0.9,-1.4,0.8,1.1%,5.1%,4.9,-1.6
O=C(CCCCn1c(=O)c2ccccc2n(Cc2ccc(F)cc2Cl)c1=O)NCc1ccco1,8.7,-0.4,-3.7,9.9%,-3.7%,1.5,-10.3
CCOc1ccc(NC(=O)c2ccc(NC(=O)COC(=O)Cc3ccc(OC)cc3)cc2)cc1,-3.9,-6.2,0.9,-0.2%,24.4%,7.3,-2.6
COCC(C)NC(=O)c1cc(-c2ccc(O)cc2)on1 (stereo not drawn),2.9,-0.5,nt,-0.1%,15.1%,22.8,21.0
